Source: PubChem (National Center for Advancing Translational Sciences (NCATS))
gsp antag = gsp mutant antagonism | 0.4% of 340,000 active | Potency, µM (top dose mostly 76.9 µM), inactives show top-dose activity change, negative = inhibition, usual class: inhibitors | gsp-mutant cells, cAMP HTRF, 30 min; control for the full effect not named in the record; active = falling curve of any shape with a large fitted effect; inconclusive = falling curve, mostly with a smaller effect; inactive = flat or rising curve; cell line not stated here;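 note: intracellular cAMP measured with PDE inhibitor Ro 20-1724 present during compound exposure; potency is the fitted concentration of half-maximal effect; % is set by controls: 0 for no effect and ±100 for the full control effect; nearly all actives have a fitted effect of over 65% in size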
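Cells in G418 medium, seeded 16-24 h, 37C; buffer exchange to DPBS + 1 mM CaCl2, 0.5 mM MgCl2, 0.05% BSA; cpds in DMSO + […] (300 uM stock), 30 min 37C; HTRF cAMP detection.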
gsp agonist = activates gsp, the McCune-Albright syndrome mutation; gsp mutant cells, cAMP HTRF, 30 min; control for the full effect not named in the record; Potency, µM (doses to about 76.9 µM), for inactives: at the top dose activation (cAMP increase), most hits filed as activators; 0.13% of 340,000 active; AID 624287; active = well fitted activation curve with a large enough effect; inconclusive = small, poorly fitted or top-dose-only effect, or another doubt; inactive = no such curve, though single readings can be large or run the other way; cell line not stated here;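 note: phosphodiesterase inhibitor Ro 20-1724 added with compounds to block cAMP breakdown; potency is the fitted concentration of half-maximal effect; nearly all actives have a fitted effect of over 60% in size; about a fifth of the inactives were tested at one dose only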
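Cells in DMEM/10% FBS with G418 were pretreated with compounds in DMSO plus […] (300 uM stock) for 30 min at 37C. cAMP was measured by HTRF (cAMP-d2 plus anti-cAMP antibody-K) after 30 min at room temperature.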
D2 ag = human D2 receptor agonism in beta-arrestin assay; P14416; DiscoveRx PathHunter D2 beta-arrestin, luminescence, 90 min; 100% = 57 uM dopamine signal; activation, % (test concentration not listed); 0.084% of 360,000 active; in the data active = activation above about 40%; inconclusive = about 15% to 40%; inactive = below about 15%; note: compound concentration not given in the record; the text of the record calls up to 30% inactive
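Agonist mode: compounds alone added to overnight-plated D2 PathHunter cells for 90 min at 37 C, with 57 uM final dopamine (EC100) defining full response. Beta-arrestin recruitment detected by chemiluminescent reagent, read after 1 h at ambient temperature.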
CtBP-E1A inh = inhibitors of CtBP/E1A interaction; activity change, % (no concentration beside the values); AlphaScreen GST-E1A/His-CtBP binding, 1536-well; stronger effect = lower value; control for the full effect not named in the record; 0.49% of 340,000 active; AID 651724; in the data active means activity change below about -65%; inconclusive means about -30% to -65%; inactive means above about -30%; note: % is set by controls: 0 for no effect and ±100 for the full control effect; compound concentration not given in the record
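Homogeneous bead-based format: GST-tagged E1A captured on glutathione donor beads, His-tagged CtBP on nickel acceptor beads; compounds precede bead addition by 2 h at 37 °C.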
Six1-Eya2 blk = Six1/Eya2 interaction inhibition | Q15475+O00167 | AlphaScreen GST-Six1/His-Eya2 binding, biochemical; stronger effect = lower value; control for the full effect not named in the record | activity change, % (test concentration not listed) | 0.56% of 360,000 active; in the data active = activity change below about -65%; inconclusive = about -30% to -65%; inactive = above about -30%; note: % is set by controls: 0 for no effect and ±100 for the full control effect; compound concentration not given in the record
Target sequence (O00167 whole entry, looked up): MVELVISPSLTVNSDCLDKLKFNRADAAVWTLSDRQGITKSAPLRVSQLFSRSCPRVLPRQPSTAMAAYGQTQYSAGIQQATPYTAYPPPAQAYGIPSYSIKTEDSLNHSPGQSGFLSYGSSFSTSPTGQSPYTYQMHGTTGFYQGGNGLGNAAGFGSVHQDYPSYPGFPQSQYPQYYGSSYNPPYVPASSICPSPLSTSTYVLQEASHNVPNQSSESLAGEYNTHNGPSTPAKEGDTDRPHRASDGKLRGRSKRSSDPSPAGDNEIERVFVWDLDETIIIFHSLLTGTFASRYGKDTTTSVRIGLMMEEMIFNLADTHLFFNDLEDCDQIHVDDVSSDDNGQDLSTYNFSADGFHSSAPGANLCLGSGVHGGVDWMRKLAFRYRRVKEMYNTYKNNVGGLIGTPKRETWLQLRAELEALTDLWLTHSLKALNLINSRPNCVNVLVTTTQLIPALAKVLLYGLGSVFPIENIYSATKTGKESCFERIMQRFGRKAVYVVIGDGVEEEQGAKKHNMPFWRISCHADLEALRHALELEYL
Target sequence (Q15475 whole entry, looked up): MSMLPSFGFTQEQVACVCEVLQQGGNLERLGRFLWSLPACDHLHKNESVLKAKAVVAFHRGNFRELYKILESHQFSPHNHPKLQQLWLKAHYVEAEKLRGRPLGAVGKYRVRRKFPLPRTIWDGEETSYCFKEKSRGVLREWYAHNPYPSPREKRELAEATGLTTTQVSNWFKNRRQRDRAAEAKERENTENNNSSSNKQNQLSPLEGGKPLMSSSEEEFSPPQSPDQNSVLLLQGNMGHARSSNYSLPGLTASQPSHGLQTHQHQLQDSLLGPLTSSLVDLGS
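Homogeneous AlphaScreen proximity assay pairing GST-Six1 with His-tagged Eya2 (added as 5X mix: 250 nM and 500 nM) in 50 mM Tris pH 8.0, 300 mM NaCl, 1 mM TCEP. Glutathione donor and nickel acceptor beads; 1 h, 37 °C, dark.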
D2 PAM = human D2 receptor positive allosteric modulation. potentiation, % (no concentration beside the values). DiscoveRx D2 beta-arrestin cells, luminescence, 90 min; 100% = 57 uM dopamine signal. P14416. 0.23% of 360,000 active; active = potentiation of 50% or more; inconclusive = 30% to 50%; inactive = 30% or less;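 note: compound concentration not given in the record; tested on top of an EC20 dose of dopamine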
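PathHunter D2 cells, attached overnight at 37 deg C, received compound in DMSO plus dopamine at EC20 (50 nM final) for 90 min at 37 deg C. Beta-arrestin recruitment was read as luminescence after 1 h with detection reagent at ambient temperature.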
* marks the source's active call; other numbers are inactive results; [ ] = remark or other dose.

Cc1noc(C)c1COC(=O)C(c1ccccc1)c1ccccc1 was read as gsp antag 13%, gsp agonist -10%[15.4 µM], D2 ag -5.3, CtBP-E1A inh 30, Six1-Eya2 blk 20 and D2 PAM -9.
Screening C=CC[C@@H](CC(=O)OC(C)(C)C)C(=O)OC[C@H]1CCCN1C(=O)[C@@H](CC=C)CC(=O)NCCO returned gsp antag 9%, gsp agonist 3%, D2 ag -6.1, CtBP-E1A inh 3, Six1-Eya2 blk 0 and D2 PAM -3.
Screening Clc1cccc(CNc2ccn3nc(-c4ccccc4Cl)cc3n2)c1 returned D2 ag -2.1, CtBP-E1A inh 6, Six1-Eya2 blk 4 and D2 PAM -8.
Screening Cc1csc(SCC(=O)Nc2cc(S(=O)(=O)N3CCCC3)ccc2Cl)n1 returned gsp antag -9%, gsp agonist 1%, D2 ag -3.5, CtBP-E1A inh -1, Six1-Eya2 blk -2 and D2 PAM -2.
CCOc1ccc(NC(=S)NC(=O)c2cnn(CC)c2)c([N+](=O)[O-])c1 was read as gsp antag 5%, gsp agonist -32%[inhibitor], D2 ag 4.6, CtBP-E1A inh -1, Six1-Eya2 blk -8 and D2 PAM 5.
For COc1cccc2cc(-c3cc(=O)oc4ccc(OCC(C)=O)cc34)oc12 the results were gsp antag -6%, gsp agonist 0%, D2 ag -2.2, Six1-Eya2 blk -2 and D2 PAM 5.
Screening O=C(NC1CCCCC1)c1cc(S(=O)(=O)N2CCOCC2)ccc1Cl returned gsp antag 6%, gsp agonist -32%[inhibitor], D2 ag 0.5, CtBP-E1A inh -8, Six1-Eya2 blk 5 and D2 PAM -3.
For COc1cccc(N2CCN(C(=O)CC(C)(C)CC3=NS(=O)(=O)c4ccccc4N3)CC2)c1 the results were gsp antag 16%, gsp agonist 23%, D2 ag -3.4, CtBP-E1A inh -7, Six1-Eya2 blk -6 and D2 PAM 0.
`Cc1cc(C)c(NC(=O)CNC(=O)COC(=O)C2=COCCO2)c(C)c1` gave gsp antag 11%, gsp agonist -33%[15.4 µM], D2 ag 3.2, CtBP-E1A inh -16, Six1-Eya2 blk 2 and D2 PAM 13.
For Cc1ccc(S(=O)(=O)N2CCN(CC(=O)N/N=C\c3ccc(O)c(O)c3)CC2)cc1 the results were gsp antag 1%, gsp agonist -23%, D2 ag 1.6, CtBP-E1A inh 8, Six1-Eya2 blk -2 and D2 PAM -1.
Screening COc1ccc2[nH]c(=O)c(CN(c3ccc(C)c(C)c3)S(C)(=O)=O)cc2c1 returned gsp antag -10%, gsp agonist 0%, D2 ag -4.5, CtBP-E1A inh -20, Six1-Eya2 blk 2 and D2 PAM -4.
For CC(=O)c1cccc(N(CC(=O)Nc2ccc(F)cc2)S(C)(=O)=O)c1 the results were gsp antag -4%, gsp agonist -20%, D2 ag -3.2, CtBP-E1A inh 16, Six1-Eya2 blk -1 and D2 PAM 10.
Screening COc1cccc(CNS(=O)(=O)c2ccc3c(c2)CC(C)N3C(=O)C2CCC2)c1 (centres undefined) returned gsp antag -9%, gsp agonist 12%, D2 ag 2.7, CtBP-E1A inh 4, Six1-Eya2 blk -2 and D2 PAM -3.
`Cc1cc(NC(=O)CSCC(=O)OCc2nnc(-c3ccccc3)o2)no1` gave gsp antag -32%, gsp agonist -33%[inhibitor], D2 ag -4.5, CtBP-E1A inh 0, Six1-Eya2 blk 21 and D2 PAM 4.
`CCOc1cc(N2CCOCC2)c(OCC)cc1NC(=O)Cc1cn2ccsc2n1` gave gsp antag -13%, gsp agonist 8%, D2 ag 3.8, CtBP-E1A inh -3, Six1-Eya2 blk -1 and D2 PAM 10.

In the list so far, these have a Cl atom.
Screening Clc1cccc(CNc2ccn3nc(-c4ccccc4Cl)cc3n2)c1 returned D2 ag -2.1, CtBP-E1A inh 6, Six1-Eya2 blk 4 and D2 PAM -8.
Screening Cc1csc(SCC(=O)Nc2cc(S(=O)(=O)N3CCCC3)ccc2Cl)n1 returned gsp antag -9%, gsp agonist 1%, D2 ag -3.5, CtBP-E1A inh -1, Six1-Eya2 blk -2 and D2 PAM -2.
Screening O=C(NC1CCCCC1)c1cc(S(=O)(=O)N2CCOCC2)ccc1Cl returned gsp antag 6%, gsp agonist -32%[inhibitor], D2 ag 0.5, CtBP-E1A inh -8, Six1-Eya2 blk 5 and D2 PAM -3.

Continued:
`O=C(Nc1cccc(O)c1)c1ccc(C(=O)c2ccccc2)o1` gave gsp antag -11%, gsp agonist -38%[inhibitor], D2 ag -4.6, CtBP-E1A inh inconclusive, Six1-Eya2 blk -19 and D2 PAM -1.
Screening O=C(NCCNC(=O)c1cnccn1)c1ccc(Cl)c(Cl)c1 returned gsp antag -7%, gsp agonist 2%[15.4 µM], D2 ag -3.2, CtBP-E1A inh 3, Six1-Eya2 blk 6 and D2 PAM -2.
For CCCCn1c(SCC(=O)N2CCCCC2)nc2cc(S(N)(=O)=O)ccc21 the results were gsp antag -3%, gsp agonist 9%, D2 ag -2.4, CtBP-E1A inh 7, Six1-Eya2 blk 0 and D2 PAM -19.
For Cc1ccc(-c2cc(N)on2)cc1 the results were gsp antag -9%, gsp agonist -23%, D2 ag 1.0, CtBP-E1A inh -6, Six1-Eya2 blk 2 and D2 PAM 10.
For CCOC(=O)C1(C)NC(c2ccco2)C2C(=O)N(c3ccccc3)C(=O)C21 (centres undefined) the results were gsp antag 2%, gsp agonist -55%[inhibitor], D2 ag -1.1, Six1-Eya2 blk 2 and D2 PAM -4.
Screening Cc1ccccc1N(CC(=O)N1CCOCC1)S(C)(=O)=O returned gsp antag 6%, gsp agonist 6%, D2 ag 3.3, CtBP-E1A inh -2, Six1-Eya2 blk 2 and D2 PAM -4.
Screening COc1ccc(N2CCN(Cc3nc4c(c(=O)n(C)c(=O)n4C)n3CCc3ccccc3)CC2)cc1 returned gsp antag 5%, gsp agonist -34%[inhibitor], D2 ag -2.0, CtBP-E1A inh -2, Six1-Eya2 blk 2 and D2 PAM -9.
CCOC(=O)C(O)(CCC(O)(C(=O)OCC)C(=O)OCC)C(=O)OCC was read as gsp antag 0%, gsp agonist 3%, D2 ag 1.9, CtBP-E1A inh 3, Six1-Eya2 blk 1 and D2 PAM -2.
Screening Cc1noc(C)c1COC(=O)c1ccc(N(C)C)cc1 returned gsp antag -7%, gsp agonist -7%, D2 ag 4.9, CtBP-E1A inh -3, Six1-Eya2 blk -2 and D2 PAM -4.
For COc1cccc(N2C(=O)CC(NNC(=O)c3cccs3)C2=O)c1 (centres undefined) the results were gsp antag 3%, gsp agonist -8%[15.4 µM], D2 ag -4.9, CtBP-E1A inh -3, Six1-Eya2 blk -18 and D2 PAM -9.
For CCN(CC)S(=O)(=O)c1ccc(Cl)c(NC(=O)COc2ccc(OC)cc2)c1 the results were gsp antag 12%, gsp agonist 2%[15.4 µM], D2 ag -3.7, CtBP-E1A inh 5, Six1-Eya2 blk 6 and D2 PAM -5.
Screening Cc1ccc(/C(O)=C2\C(=O)C(=O)N(CC(C)O)C2c2ccc(N(C)C)cc2)cc1 (centres undefined) returned gsp antag 1%, gsp agonist -5%, D2 ag -1.4, CtBP-E1A inh 4, Six1-Eya2 blk -3 and D2 PAM 25.
Screening CCOC(=O)c1sc(NC(=O)CCSC)nc1C returned gsp antag -1%, gsp agonist -69%[inhibitor], D2 ag -1.7, CtBP-E1A inh 2, Six1-Eya2 blk -6 and D2 PAM -2.
`Cc1ccc2c(c1)N(CC(=O)N1CCCCCC1)C(=O)c1cccnc1O2` gave gsp antag 2%, gsp agonist 13%, D2 ag 7.0, CtBP-E1A inh 1, Six1-Eya2 blk 2 and D2 PAM 4.
COc1ccc(CNc2c(C(=O)O)cnc3c2cnn3C)cc1 was read as gsp antag -19%, gsp agonist 25%, D2 ag 0.3, CtBP-E1A inh -3, Six1-Eya2 blk -11 and D2 PAM -1.
`COc1ccc(NC(=O)CN(C)C(=O)C2CC(=O)N(c3ccc4c(c3)OCCO4)C2)cc1` (centres undefined) gave gsp antag 3%, gsp agonist -5%, D2 ag -2.2, CtBP-E1A inh -15, Six1-Eya2 blk 4 and D2 PAM -15.
For CC(=O)Nc1ccc(C(=O)OCC(=O)Nc2ccccc2Sc2ccccc2)cc1 the results were gsp antag -24%, gsp agonist -6%, D2 ag -0.5, CtBP-E1A inh 8, Six1-Eya2 blk 5 and D2 PAM -5.
For O=C(Nc1nnc(S(=O)(=O)N2CCCCC2)s1)c1ccc(Cl)cc1 the results were gsp antag -1%, gsp agonist -32%[inhibitor], D2 ag 1.7, CtBP-E1A inh -2, Six1-Eya2 blk 7 and D2 PAM 2.
Screening CCc1nn(CC(=O)NCCCN2CCOCC2)c(=O)c2cc3sccc3n12 returned gsp antag 1%, gsp agonist -67%[inhibitor], D2 ag 2.5, Six1-Eya2 blk 1 and D2 PAM 3.
`Cc1nc2c(ccc3nc(NC(=O)C(c4ccccc4)c4ccccc4)sc32)s1` gave gsp antag -8%, gsp agonist 19%, D2 ag -3.3, CtBP-E1A inh 22, Six1-Eya2 blk 8 and D2 PAM -9.
Cc1oc2ccc(NS(=O)(=O)c3cccc4cccnc34)cc2c1C(=O)OC(C)C was read as gsp antag 6%, gsp agonist 14%, D2 ag 4.0, CtBP-E1A inh -5, Six1-Eya2 blk -11 and D2 PAM 19.
For Cc1cc(O)ccc1-c1cnc2ccccc2n1 the results were gsp antag -15%, gsp agonist -1%, D2 ag -1.2, CtBP-E1A inh 2, Six1-Eya2 blk -1 and D2 PAM 2.
Screening CCC1Nc2ccccc2-c2nnc(SC)nc2O1 (centres undefined) returned gsp antag -2%, gsp agonist -34%[inhibitor], D2 ag -3.5, CtBP-E1A inh -20, Six1-Eya2 blk -16 and D2 PAM -4.
Screening CC1=C(C#N)C(c2cccnc2)C2=C(CC(C)(C)CC2=O)N1 (centres undefined) returned gsp antag 0%, gsp agonist inconclusive, D2 ag -2.1, CtBP-E1A inh 0, Six1-Eya2 blk -2 and D2 PAM 8.
`Cc1noc2ncnc(Oc3ccc(Cl)cc3Cl)c12` gave gsp antag 8%, gsp agonist 7%[15.4 µM], D2 ag -5.4, CtBP-E1A inh -10, Six1-Eya2 blk 6 and D2 PAM 3.
`COc1ccc2nc(NC(=O)CSc3nnc(N)s3)sc2c1` gave gsp antag 2%, gsp agonist -22%, D2 ag 0.3, CtBP-E1A inh -6, Six1-Eya2 blk 3 and D2 PAM 9.
For CCOc1ccccc1C(=O)Nc1nnc(CC)s1 the results were gsp antag -5%, gsp agonist -47%[inhibitor], D2 ag -2.8, CtBP-E1A inh -3, Six1-Eya2 blk -9 and D2 PAM -2.
COc1cccc2c1C(=O)CC1C2CCC2CC(=O)CCC21C (centres undefined) was read as gsp antag -4%, gsp agonist inconclusive, D2 ag -4.7, CtBP-E1A inh 3, Six1-Eya2 blk 8 and D2 PAM -15.
Screening COc1ccc(C(=O)Nc2ccc(NC(=O)CSc3nnc(-c4ccncc4)n3C)cc2)cc1 returned gsp antag 4%, gsp agonist 28%, D2 ag -2.2, CtBP-E1A inh 2, Six1-Eya2 blk -4 and D2 PAM -4.
